LASV entry inh: qHTS for Inhibitors of binding or entry into cells for Lassa Virus. Lassa virus pseudotype entry inhibition, cell reporter; control for the full effect not named in the record. Potency, µM (highest dose often 37.9 µM), for the others: top-dose activity change, negative = inhibition, actives largely listed as inhibitors. 1.2% of 300,000 active. AID 540256, 2011; active means well fitted inhibition curve with a large enough effect; inconclusive means small, poorly fitted or top-dose-only effect, or effect the other way; inactive means flat fitted curve, though single readings scatter; tested in HEK293 cells; also: % is scaled to controls: 0 for no effect and ±100 for the full control effect; nearly all actives have a fitted effect of over 50% in size; luciferase read-out
Marburg entry inh: qHTS for inhibitors of binding or entry into cells for Marburg Virus | Potency, µM (series often up to 37.8 µM), for the others: at the top dose activity change, negative = inhibition, usual class: inhibitors | Marburg virus pseudotyped entry inhibition, cell reporter; control for the full effect not named in the record; about a third of the inactives were read at about 46 µM | 1.8% of 300,000 active | AID 540276, 2011; active = well fitted inhibition curve with a large enough effect; inconclusive = small, poorly fitted or top-dose-only effect, or effect the other way; inactive = flat fitted curve, though single readings scatter; tested in HEK293 cells; about a fifth of its hits are not listed in these tables; also: % is scaled to controls: 0 for no effect and ±100 for the full control effect; luciferase read-out
Cruzain Triton: qHTS Assay for Promiscuous and Specific Inhibitors of Cruzain (with detergent); purified cruzain, Z-FR-AMC fluorescence, 0.01% Triton; Potency, µM, without a hit: max response, negative = inhibition, most hits filed as inhibitors; 0.43% of 200,000 active; AID 1478, 2009; active = well fitted curve in the direction sought with a large enough effect; inconclusive = small, poorly fitted or top-dose-only effect, or another doubt; inactive = no such curve, though single readings can be large; an effect the other way counts as inactive or inconclusive;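 also: plate controls were neutral wells for no effect and buffer without enzyme for full effect; nearly all actives have a fitted effect of over 40% in size; top concentration of the series not given in the record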
Target sequence (P25779 123-467 limits assumed): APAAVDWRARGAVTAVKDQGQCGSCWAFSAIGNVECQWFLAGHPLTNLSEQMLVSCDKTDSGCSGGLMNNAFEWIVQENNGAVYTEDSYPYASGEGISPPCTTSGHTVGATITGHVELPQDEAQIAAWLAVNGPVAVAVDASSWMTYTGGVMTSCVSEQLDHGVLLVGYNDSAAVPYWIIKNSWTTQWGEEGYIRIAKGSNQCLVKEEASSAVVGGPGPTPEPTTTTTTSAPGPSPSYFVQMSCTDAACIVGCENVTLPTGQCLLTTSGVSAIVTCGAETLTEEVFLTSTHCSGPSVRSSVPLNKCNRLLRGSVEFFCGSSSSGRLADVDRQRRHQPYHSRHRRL
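Steps: dispense cruzain (1.5 nM final) in acetate buffer pH 5.5 with DTT and 0.01% Triton X-100; pin-transfer compounds; incubate 15 min RT; add Z-FR-AMC (2 uM final); read fluorescence every 30 s, using the 60 s intensity change.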
2A StopGo: High Throughput Screening for Foot and Mouth Disease Virus Antivirals | human cells with a luciferase reporter of 2A StopGo recoding; control for the full effect not named in the record | Potency, µM (titrated, usually from 57.9 µM), inactives show at the highest dose signal change, negative = less light | 1.2% of 410,000 active; active = well fitted falling curve with a large enough effect; inconclusive = small, poorly fitted or top-dose-only effect; inactive = no such curve, though single readings can be large or run the other way; tested in HEK293T cells; also: % is scaled to controls: 0 for no effect and ±100 for the full control effect; nearly all actives have a fitted effect of over 45% in size; luciferase light after 4 h
Cruzain noTriton: qHTS Assay for Promiscuous and Specific Inhibitors of Cruzain (without detergent) | purified cruzain, Z-FR-AMC fluorescence, no detergent | Potency, µM, inactives show max response, negative = inhibition, hits mostly inhibitors | 2.3% of 200,000 active | AID 1476, 2009; active = well fitted curve in the direction sought with a large enough effect; inconclusive = small, poorly fitted or top-dose-only effect, or another doubt; inactive = no such curve, though single readings can be large; an effect the other way counts as inactive or inconclusive;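 also: plate controls were enzyme without inhibitor for no effect and buffer without enzyme for full effect; nearly all actives have a fitted effect of over 40% in size; top concentration of the series not given in the record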
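Detergent-free condition (0.00005% Triton X-100) in acetate buffer pH 5.5 with DTT. 1.5 nM enzyme and compound were pre-mixed 15 min, then 2 uM Z-FR-AMC substrate added; reaction progress from fluorescence change between first and third reads (60 s).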
RE007 growth inh: qHTS Assay for Inhibitors of the HIV-1 protein Vpr; Potency, µM (top dose mostly 92.2 µM), for the others: top-dose activity change, negative = less growth; S. pombe RE007 Vpr strain, BacTiter-Glo ATP luminescence, 24 h; control for the full effect not named in the record; 0.21% of 360,000 active; active = well fitted falling curve with a large enough effect; inconclusive = small, poorly fitted or top-dose-only effect; inactive = no such curve, though single readings can be large or run the other way;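 also: % is scaled to controls: 0 for no effect and ±100 for the full control effect; nearly all actives have a fitted effect of over 50% in size; the assay follows cell death caused by Vpr and the record does not say whether a fall means rescue or toxicity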
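Fission yeast strain RE007, carrying one chromosomally integrated HIV-1 vpr copy, was seeded at OD 0.01 in PMG+AL medium with 23 nL pinned compound. After 24 h at 30 °C and 99% humidity, viability was read by BacTiter-Glo luminescence.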
SARS PLpro yeast: qHTS of Yeast-based Assay for SARS-CoV PLP; S. cerevisiae expressing SARS-CoV PLpro, growth rescue; control for the full effect not named in the record; Potency, µM (top dose mostly 32.9 µM), without a hit: top-dose activity, positive = growth rescue; 0.19% of 330,000 active; also: 0% is about no effect; nearly all actives have a fitted effect of over 55% in size; growth read by luminescence after 48 h
NS1 inh: qHTS Assay for Inhibitors of Influenza NS1 Protein Function; AID 2326, 2010; 0.4% of 270,000 active; Potency, µM (series often up to 46.1 µM), for inactives: at the highest dose activity, positive = more growth; S. cerevisiae slowed by influenza A NS1, growth recovery by OD600; also: actives are rising curves; nearly all actives have a fitted effect of over 50% in size
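Compounds were scored for reversing the slow growth caused by influenza A NS1 in S. cerevisiae, measured by optical density at 600 nm. Assay medium contained 2% galactose at pH 6.0; NS1-free yeast of the same strain were the positive control.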
An asterisk follows results filed as active; ? = inconclusive; . = not tested or not shown; [ ] = remark or other dose. Unless noted, calls follow the shape of the dose curve; as a rule, active means well fitted rising curve with a large enough effect; inconclusive means small, poorly fitted or top-dose-only effect; inactive means no such curve, though single readings can be large or run the other way. Potency is read from the fitted curve at half-maximal effect.

SMILES | LASV entry inh | Marburg entry inh | Cruzain Triton | 2A StopGo | Cruzain noTriton | RE007 growth inh | SARS PLpro yeast | NS1 inh
CCOc1ncccc1C(=O)Nc1cc(S(=O)(=O)N2CCOCC2)ccc1OCC(F)(F)F | 2%[46.1 µM] | ? | . | -27% | . | 22% | -6% | .
CC(C)Oc1ccc(CN2CCC(n3nccc3NC(=O)c3cccnc3)CC2)cc1 | . | . | . | 0% | . | 2% | -7% | 15%
COC(=O)Cc1ccc(NC(=S)NCCO)cc1 | 1% | -2% | . | 0% | . | 2% | 2% | 5%
CNc1ncc(C(=O)C(C)(C)C)s1 | 3% | 5% | -2.0% | 2% | -2% | 6% | 0% | ?
CCOC(=O)C1C(c2ccccc2)C(C(=O)OCC)C1c1ccccc1 (stereo unspecified) | 2% | 1% | -1.7% | . | -9% | -13% | -8% | 5%
COCCNc1nc(-c2ccccc2)nc2ccccc12 | ? | ? | . | -10% | . | -20% | 0% | 0%
CCOC(=O)c1c(C)c(-c2ccccc2)n(CC(=O)NC(CC)Cc2ccccc2)c1C (stereo unspecified) | . | -30%[46.1 µM] | -0.1% | -19% | 0% | . | . | .
COc1ccc(NC(=O)c2oc3ccc(S(=O)(=O)N4CCC5(CC4)OCCO5)cc3c2C)cc1Cl | ? | . | 1.1% | ? | -11% | . | . | .
O=C(NCc1ccc(F)cc1)C(c1ccccc1)N(C(=O)c1csnn1)C1CCCC1 (stereo unspecified) | ? | -2%[46.1 µM] | . | 4% | . | -1% | 10% | 21%
Cc1cc(C)cc(NC(=O)CSc2ccc(-c3ccco3)nn2)c1 | -5% | ? | -13% | ? | 5% | 14% | -16% | -6%
CC(C)c1ccc(NC(=O)c2cn(C3CCCC3)c(=O)c3c2c2ccccc2n3C)cc1 | 4%[46.1 µM] | -2%[46.1 µM] | -4.4% | -22% | -29% | . | . | .
CC1CCCN(C(=O)c2ccc3c(=O)n(Cc4ccc5c(c4)OCO5)c(=S)[nH]c3c2)C1 (stereo unspecified) | -27% | -20% | -5.5% | ? | ? | -1% | 4% | 12%
CN(c1ccccc1)c1nc2ccsc2c(=O)s1 | 0% | ? | -2.1% | 47%[activator] | -12% | -17% | -12% | -57%
CN(Cc1ccccc1)C1=CC(=[N+]2CCCC2)CC(C)(C)C1 | ? | ? | . | ? | . | 7% | 0% | 2%
CC(C)(C)c1ccc(C(=O)CS(=O)(=O)c2ccccc2)cc1 | ? | ? | -2.6% | -17% | -17% | -20% | -6% | -28%
Cc1cccn2c(=O)c3cc(C(=O)NC4CCCCC4)n(C)c3nc12 | 17%[46.1 µM] | 13%[46.1 µM] | . | -4% | . | -21% | -6% | -4%
COc1cc([N+](=O)[O-])ccc1NC(=O)NCc1ccccn1 | . | . | . | 7% | . | -10% | 2% | 2%
COc1cc(C(=O)O)ccc1Cl | . | . | . | 23% | . | 5% | 2% | -9%
O=c1oc2ccccc2c(O)c1/C=N/c1ncccn1 | -19% | -20% | 0.4% | . | 3% | -12% | 14% | -14%
CSc1ccc(CN2CCC(n3nccc3NC(=O)c3ccccc3C)CC2)cc1 | . | . | . | -20% | . | 4% | 26% | 2%
Cc1ccc(-n2c(C)c(C)c3c(NCCCO)ncnc32)cc1 | ? | ? | . | 21% | . | -3% | -1% | -3%
CCOP(=O)(OCC)/C(C#N)=C(\O)c1ccc(OC)cc1 | . | . | . | -13% | . | 11% | 1% | -42%
O=C1N(Cc2cccc(Cl)c2)C[C@@H]2C[C@@H](c3c[nH]c4ccccc34)N3CCC[C@@]123 | ? | ? | . | -10% | . | 17% | 0% | 26%
COc1c(C)cccc1C(=O)NCCCNC(=O)c1ccc(C)nc1 | 5%[46.1 µM] | 12%[46.1 µM] | . | 1% | . | -23% | -1% | 10%
CCCCN(C(=O)CNC(=O)c1ccco1)C(C(=O)NC1CCCC1)c1ccc(OC)cc1 (stereo unspecified) | 12% | 0% | 2.5% | 24% | -5% | 11% | -5% | -5%
CC(Sc1nncn1C)C(=O)Nc1nnc(C(C)C)s1 (stereo unspecified) | . | . | -2.5% | -5% | -6% | 3% | 1% | -12%
O=C1[C@@H]2CSC(c3ccc(C(F)(F)F)cc3)N2C(=O)N1c1ccccc1 (stereo partly specified) | 7%[46.1 µM] | -1%[46.1 µM] | -7.7% | -20% | 10% | . | . | .
NC(=O)C1=CN(Cc2ccc(Cl)cc2)CCC1C(F)(F)F (stereo unspecified) | ? | ? | . | -23% | . | 25% | 1% | 0%
Cc1cccc2sc(N(CCN(C)C)C(=O)c3cc(Cl)sc3Cl)nc12 | 6% | 16% | -3.6% | 0% | 11% | -17% | -4% | -9%
CCN(CC)C1CCN(C(=O)CCc2nnc(CCc3ccccc3)o2)C1 (stereo unspecified) | . | . | . | 1% | . | -15% | 1% | 0%
CCCCn1c(SCC(=O)N2CCOCC2)nc2c1c(=O)n(C)c(=O)n2C | 1% | 1%[46.1 µM] | . | 5% | . | -4% | 1% | 7%
CCC(C)Nc1nc(N)c([N+](=O)[O-])c(Nc2ccccc2OC)n1 (stereo unspecified) | ? | -17%[46.1 µM] | . | ? | . | 19% | -2% | -73%
COc1ccc(C)cc1S(=O)(=O)N1CC(C)OC(C)C1 (stereo unspecified) | 9% | 15%[46.1 µM] | . | 5% | . | -3% | 0% | 3%
O=C(N/N=C/c1ccc2nccnc2c1)c1cccc([N+](=O)[O-])c1 | 22% | -15%[46.1 µM] | . | 34%[activator] | . | 9% | -2% | .
Cc1ccc(C)c(CNS(=O)(=O)c2c(C(=O)N3CCCC3)c(C)n(C)c2C)c1 | 2%[46.1 µM] | 9%[46.1 µM] | . | 29% | . | 5% | -1% | 0%
CCN1CCN(C(c2cccs2)C(C)NC(=O)C(C)C)CC1 (stereo unspecified) | . | . | -3.3% | -23% | -7% | -1% | 18% | 1%
Cc1ccccc1C(=O)Nc1cccc(N)c1 | 9% | -5%[46.1 µM] | 1.0% | 35%[activator] | -14% | 8% | -4% | 13%
CC(C)CNC(=O)COC(=O)c1ccc(Cl)c(S(=O)(=O)N2CCc3ccccc32)c1 | -17%[46.1 µM] | -8% | . | 5% | . | 10% | 2% | .
CCN1C(=O)C2(SC(NC(C)=O)=NN2C(C)=O)c2cc(C)cc(C)c21 (stereo unspecified) | 2% | 3% | -2.9% | 3% | 10% | -5% | 2% | -3%
Cc1nn2c([nH]c(=O)c3ccccc32)c1C=O | ? | 17% | -0.8% | 31%[activator] | 10% | 11% | -7% | -178%
O=C(N/C(=C/c1cccs1)C(=O)N1CCCCCC1)c1ccccc1 | -10%[14.3 µM] | 21% | -4.1% | 63%[activator] | -12% | 9% | -13% | -6%
CCC(=O)Nc1ccc(C(=O)NNC(=O)Cc2ccccc2)cc1 | 0% | 11% | -0.5% | -4% | 3% | 0% | -8% | -2%
CC(C)NC(=O)c1cc2cc([N+](=O)[O-])ccc2s1 | -18% | ? | 1.8% | -13% | 9% | -20% | -4% | -3%
O=C1CCc2cc(S(=O)(=O)NC(Cc3ccccc3)C(=O)NCC3CCCO3)ccc2N1 (stereo unspecified) | . | . | 0.5% | -13% | 1% | 13% | 5% | 4%
CCOc1ccc(CCNC(=O)Nc2cccc(OC)c2)cc1OCC | . | . | . | -12% | . | 4% | 1% | -10%
CC1(C)Cc2c(cnn2-c2ccccc2)C(=O)/C1=N\NC(=O)c1ccccc1N | -5% | -1% | -1.5% | . | -5% | 1% | 8% | 7%
Cn1nc(C(C)(C)C)cc1C(=O)NN1CCOCC1 | ? | 26%[46.1 µM] | . | -14% | . | -10% | 6% | 23%
CC(NC(=O)c1ccncc1)c1ccc(Cl)cc1Cl (stereo unspecified) | 15%[46.1 µM] | ? | . | -2% | . | 2% | 1% | 8%
O=C(C1CCN(S(=O)(=O)c2cccc3cccnc23)CC1)N1CCN(c2ccc(Cl)cc2)CC1 | . | 3% | -1.6% | -30% | -28% | -1% | 2% | 15%
CC1CC(C)CN(S(=O)(=O)c2ccc3c(c2)oc(=O)n3CC(=O)NCc2cccnc2)C1 (stereo unspecified) | ? | ? | . | 11% | . | -19% | 0% | 3%

(continued)
SMILES | LASV entry inh | Marburg entry inh | Cruzain Triton | 2A StopGo | Cruzain noTriton | RE007 growth inh | SARS PLpro yeast | NS1 inh
COC(=O)C1CCN(CCCOc2ccc(CN3CCN(c4ccc([N+](=O)[O-])cc4)CC3)cc2)CC1 | 28%[46.1 µM] | -4%[46.1 µM] | . | 0% | . | 6% | -2% | 2%
CCCNC(=O)NC(=O)CN1CCCC1c1ccc2c(c1)OCCO2 (stereo unspecified) | -6%[46.1 µM] | 17%[46.1 µM] | . | -15% | . | -2% | 6% | 8%
CCC(=O)N(C)CCc1cc2c(c(OC)c1/C=N/NS(=O)(=O)c1ccc(C)cc1)OCO2 | -14% | 12%[46.1 µM] | . | 4% | . | 2% | 3% | -13%
Cc1ccc(C(CNS(=O)(=O)c2ccc([N+](=O)[O-])cc2)N2CCN(C)CC2)cc1 (stereo unspecified) | ? | ? | . | 0% | . | -18% | 3% | .
Cc1cccc(CCNS(=O)(=O)c2ccc(S(=O)(=O)N3CCCCC3)cc2)c1 | -7% | 5% | 1.8% | 15% | ? | -3% | 8% | 4%
CN1C(c2ccc(F)cc2)=CS/C1=C(/C#N)c1nnc2n1-c1ccccc1SC2 | -1%[46.1 µM] | ? | . | -23% | . | 22% | . | .
CS(=O)(=O)Nc1ccc(C(=O)N2CCCCC2)cc1 | -28% | ? | -0.9% | . | -1% | -5% | 3% | -18%
OC(CCCN1CCCCC1)(c1ccccc1)c1ccc(C(F)(F)F)cc1 (stereo unspecified) | -22%[46.1 µM] | ? | . | -11% | . | 3% | . | .
OCC1(CCOc2ccccc2)CCN(CCCn2cccn2)CC1 | 16% | 13%[46.1 µM] | . | -7% | . | -11% | -1% | 0%
